Compound activity: PubChem BioAssay, ICCB-Longwood Screening Facility, Harvard Medical School
Anaer choline gr – inhibitors of anaerobic choline-dependent gram-negative bacterial growth; Gram-negative bacterium anaerobic choline minimal medium, absorbance growth; hits give low values; many inactives read as strong as hits in the columns shown; calls only; actives 0.2% (n = 55,000); AID 1963822;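 active = growth z-score on choline under -2 at 7 or 20 h with little or no fall on glycerol, limits in tiers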;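 also: stock transfer was 300 nL into about 50 µL; the organism is E. coli; final concentration not given here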
Anaer choline gr early – further read-out of Anaer choline gr, marked with its call; z-score; measured here: choline growth z-score, timepoint 1;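 score of optical density at 7 h as mean of two plates; lower means less growth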
* hit, by the source's call; i = inactive.

SMILES	Anaer choline gr	Anaer choline gr early
CC(=O)Nc1ccc(-n2c(-c3ccc(Cl)cc3)cn3c4c(=O)n(C)c(=O)n(C)c4nc23)cc1	i	0.45
Fc1ccccc1-c1ccc(SCc2nc(-c3ccc4c(c3)OCO4)no2)nn1	i	-0.07
Cc1cccc(N2CCN(C(=O)CN(C)S(=O)(=O)c3ccc4c(c3)nnn4C(C)C)CC2C)c1 (configuration not stated)	i	-0.6
COc1ccc(NC(=O)c2ccc(-c3csc(C)n3)cc2)cc1OC	i	-1.9
CC(=O)N1CCC2(CC1)OC(=O)C(C)=C2C(=O)NCCN(CC(C)C)CC(C)C	i	0.8
CCc1nc(CN2CCCN(C)CC2)no1	i	0.52
COc1ccc(NC(=O)C2Nc3cc(F)ccc3S(=O)(=O)N2)cc1Cl (configuration not stated)	i	0.3
CCCCCn1c(SCCC(=O)O)nc2c1c(=O)[nH]c(=O)n2C	i	0.01
COCCNC(=O)c1cc(=O)n(C)c2c1c(=O)n(C)c(=O)n2C	i	-1
O=S(=O)(c1ccccc1F)N1CCN(c2ncnc3c2nnn3-c2ccc(F)cc2)CC1	i	-0.84
O=C(CC1COc2ccccc2N1Cc1ccccc1)NC1CCCC1 (configuration not stated)	i	0.95
Cc1cc(C)cc(S(=O)(=O)Nc2cccc(-c3ccc(N4CCC(C)CC4)nn3)c2)c1	i	1.1
Cc1onc(-c2cccc(F)c2)c1C(=O)N1CCCC1	i	0.88
CC(C)N(Cc1ccccc1)C(=O)C1CCN(C(=O)c2cnn(-c3ccccc3)c2-n2cccc2)CC1	i	0.69
CCOC(=O)N1CCN(C(=O)c2cnc3sc4c(n3c2=O)CCCC4)CC1	i	1.4
CCCN1CCN(S(=O)(=O)c2cc(-c3nnc(C4CC4)o3)co2)CC1	i	0.19
COc1cc(OC)c(NC(=O)c2c3c(nn2C)-c2ccccc2SC3)cc1Cl	i	1.1
CCC(C)(C)NS(=O)(=O)c1ccc2c(c1)CCN2C(=O)NC1CCCCC1	i	0.35
Brc1ccc(-c2cn3ncsc3n2)cc1	i	0.02
CC1Oc2ccccc2C(=O)N(CC(=O)c2ccc3c(c2)OCCO3)C1=O (configuration not stated)	i	-0.43
COC(=O)c1ccc2c(=O)n(-c3ccc(Cl)cc3)c(N3CCN(C4CCCCC4)CC3)nc2c1	i	-0.11
O=C(CC1CCCC1)N1CCN(Cc2noc(-c3ccccc3)n2)CC1	i	-0.05
CC(C)NC(=O)N1CCCC(C)(C(=O)NCc2ccccc2)C1 (configuration not stated)	i	-0.85
COc1ccc(CNC(=O)c2ccc(N3CCCS3(=O)=O)cc2)cc1OC	i	-1.7
O=C(Nc1ccc(F)c(Cl)c1)c1cnc2sc3c(n2c1=O)CCCC3	i	-0.63

Reformatted: results already given.
Compound | Anaer choline gr | Anaer choline gr early
CC(=O)Nc1ccc(-n2c(-c3ccc(Cl)cc3)cn3c4c(=O)n(C)c(=O)n(C)c4nc23)cc1 | i | 0.45
Fc1ccccc1-c1ccc(SCc2nc(-c3ccc4c(c3)OCO4)no2)nn1 | i | -0.07
Cc1cccc(N2CCN(C(=O)CN(C)S(=O)(=O)c3ccc4c(c3)nnn4C(C)C)CC2C)c1 (configuration not stated) | i | -0.6

The list goes on.
SMILES	Anaer choline gr	Anaer choline gr early
COc1ccc(CN2C(=O)C3CCCCC3C2=O)cc1S(=O)(=O)N1CCCC1 (configuration not stated)	i	-1.4
O=C(NCc1ccc(S(=O)(=O)N2CCCCC2)s1)C1(c2ccccc2)CC1	i	1.2
CCNC(=O)CN1C(=O)C2CCCCN2c2ccc(S(=O)(=O)N(CC)CC)cc21 (configuration not stated)	i	-1.2
Cc1cc(NC(=O)c2cc(-c3ccccn3)nc3ccccc23)no1	i	-0.02
COc1ccc(C)cc1S(=O)(=O)Nc1cccc(N2CCCS2(=O)=O)c1	i	0.1
Cn1cc(C(=O)Nc2ccc(F)c(Cl)c2)c2[nH]c(=O)n(-c3ccc(Cl)cc3)c(=O)c21	i	0.07
CCOC(=O)c1c(C)[nH]c(C(=O)N2CCCC(C(=O)NCCCN3CCN(CC)CC3)C2)c1C (configuration not stated)	i	-1.6
O=C(NCCCN1CCCCC1)c1cn2c(n1)CSCC2	i	0.81
CCOc1ccccc1C(=O)Nc1cc2c(cc1SC1CCCCC1)n(C)c(=O)n2C	i	0.8
Cc1cc(C(=O)NCCCN=C2NS(=O)(=O)c3ccccc32)c2ccccc2n1	i	-1.7
CCC(Sc1nc2ncccc2o1)C(=O)Nc1ccc2c(c1)OCCO2 (configuration not stated)	i	-0.28
Cc1ccc(C)c(-n2c(-c3ccc(Cl)cc3)cn3c4c(=O)n(C)c(=O)n(C)c4nc23)c1	i	0.33
CCCCN1CCN(S(=O)(=O)c2cc(-c3nnc(C4CCCC4)o3)co2)CC1	i	0.4
O=c1c2cc3c(cc2nc(SCc2nc(-c4ccccc4)no2)n1C1CC1)OCO3	i	-0.61
CCOc1ccc(S(=O)(=O)c2c(C(=O)c3ccc(C)cc3)cnc3cc4c(cc23)OCCO4)cc1	i	0.18
COc1ccc(-n2nnnc2CNC(=O)C2CC(=O)N(c3ccc(C)c(C)c3)C2)cc1 (configuration not stated)	i	0.39
Cn1c(=O)n(Cc2cccnc2)c(=O)c2cnc(-c3cccnc3)nc21	i	-0.14
O=c1c2ccccc2n2c(=O)n(Cc3ccccc3)nc2n1Cc1ccc(F)cc1	i	-0.19
CCOc1ccc2nc(NC(=O)C3CCCN(S(=O)(=O)c4cccc5cccnc45)C3)sc2c1 (configuration not stated)	i	0.44
Cc1ncc(-c2ccc(S(=O)(=O)N3CCCC3)cc2)o1	i	-0.64
COc1ccc(-c2nc(-c3ccc4c(c3)[nH]c(=O)c(=O)n4C)no2)cc1	i	-0.02
c1ccc(-c2cc(NCc3ccccn3)n3ncc(-c4ccccc4)c3n2)cc1	i	0.99
CCc1csc(C2CCN(C(=O)C(C)C)CC2)n1	i	0.31
Cc1ccc(CNS(=O)(=O)c2ccc(-c3n[nH]c(C)c3C)o2)o1	i	-0.23
CCc1ccccc1S(=O)(=O)NCCn1c(-c2ccncc2)nc2cccnc21	i	-0.5
Next structures follow.
SMILES	Anaer choline gr	Anaer choline gr early
CCOc1cc(CNCCSc2nnnn2C)cc(Cl)c1OCc1ccccc1F	i	1.1
Cn1cc(C(=O)Nc2ccccc2Cl)c2[nH]c(=O)n(-c3ccccc3)c(=O)c21	i	-0.87
CCSc1c(COC)cnc2c1c(=O)n(C)c(=O)n2C	i	-1
O=C(NCc1ccccc1Cl)c1ccc2nc3sc4c(c3c(=O)n2c1)CCCC4	i	1.6
COC(=O)c1ccccc1NC(=O)CN1C(=O)c2c(c3ccccc3n2C)C1c1ccc(OC)cc1 (configuration not stated)	i	0.12
COc1ccc(NC(=O)N2Cc3cccn3-c3ccccc32)cc1	i	-0.86
COc1cc(CNCCc2ccccc2)ccc1OCc1ccc2c(c1)n(C)c(=O)n2C	i	-0.95
CC(C)c1ccc(S(=O)(=O)N2CCCN(c3nc4cccnc4s3)CC2)cc1	i	1.3
Cc1nc(-c2ccc(S(=O)(=O)N3CCN(c4ccccn4)CC3)cc2)co1	i	0.75
COc1ccc(-c2nnc(-c3ccc(C)c(S(N)(=O)=O)c3)o2)cc1OC	i	-0.34
CCOc1ccc(-c2[nH]ncc2CN2CCCC2c2cc(C(C)C)no2)cc1 (configuration not stated)	i	2.8
CCc1cccc(NC(=O)Cn2ncn3c(cc4ccccc43)c2=O)c1	i	1.1
CCc1ccc(CN2CCn3c(CC)nnc3C2)o1	i	-0.59
COCCNC(=O)c1ccc(Cn2nc(-n3cccc3)c3c(C)cc(C)nc32)cc1	i	0.38
CCC(C)NC(=O)Cn1cnc2nc(N3CCC(C(=O)NC4CC4)CC3)sc2c1=O (configuration not stated)	i	0.82
CCSc1nc2ccc(NS(=O)(=O)c3cc(C)cc(C)c3)cc2s1	i	0.41
CCOC(=O)c1c(C)n(-c2ccc(C)cc2)c2ccc(OCC(O)Cn3c(C)nc4ccccc43)cc12 (configuration not stated)	i	-0.16
NC(=O)c1ccccc1NC(=O)CSc1nnc(-c2cc3ccccc3o2)n1-c1ccccc1	i	0.44
Cc1nn(-c2ccccc2)c(-n2cccc2)c1CNC(=O)Nc1ccccc1Cl	i	0.72
O=C(NC1CCCCC1)N1CCc2cc(S(=O)(=O)NC3CCCC3)ccc21	i	0.14
Cc1ccccc1NC(=O)Cc1c(C)nn(C(C)C(=O)Nc2ccccc2C)c1C (configuration not stated)	i	-1
Cc1nccc2[nH]c(=O)c(C(=O)NCCC(C)C)cc12	i	-0.02
CC(=O)N1CCc2cc(C(O)CN3CCN(C4CCCCC4)CC3)ccc21 (configuration not stated)	i	0.39
Cc1sc(-c2cc(C(F)(F)F)[nH]n2)cc1S(=O)(=O)N1CCN(c2ccccc2F)CC1	i	1.4
COc1ccc(NC(=O)c2ccc(-n3nc(Sc4ccc(F)cc4)ccc3=O)cc2)c(OC)c1	i	0.39
(list continues)
SMILES	Anaer choline gr	Anaer choline gr early
CCc1ccc(OCC(O)Cn2c(C3CC3)nc3ccccc32)cc1 (configuration not stated)	i	0.36
O=C(Cc1csc2nc(-c3ccccc3)cn12)NCc1ccccc1	i	1.8
O=C(c1ccccc1Cl)N1CCN(Cc2cc(=O)n3nc(-c4ccccc4)sc3n2)CC1	i	1.1
CN(C)c1nc(Nc2cccc(F)c2)c2cnn(-c3ccccc3)c2n1	i	-0.13
O=C(NCc1ccc2c(c1)OCO2)C1CCN(c2nccn3nc(-c4ccccc4)cc23)CC1	i	0.27
Fc1ccccc1-c1noc(NCC2CCCO2)n1 (configuration not stated)	i	-0.69
c1ccc(-c2nc3nc4c(c(Nc5ccc6c(c5)OCCO6)n3n2)CCCC4)cc1	i	-0.53
CC1CCN(c2cc(C(=O)O)c3cc(NC(=O)c4cccc(Cl)c4)ccc3n2)CC1	i	0.02
CCCNC(=O)CSc1c2c(nc3ccc(Cl)cc13)CCCC2	i	0.65
CC1CCCCN1S(=O)(=O)c1ccc2c(c1)CCN2C(=O)CCC(=O)N1CCCC1 (configuration not stated)	i	1.1
COc1ccc2c(c1)NC1(CCN(C(=O)CSc3ccccc3)CC1)c1cccn1-2	i	0.19
CC(=O)Nc1ccc(NC(=O)Cn2nc(C(=O)Nc3ccccc3)ccc2=O)cc1	i	0.26
Cc1noc(-c2ccccc2OCC(=O)Nc2nnc(CC(C)C)s2)n1	i	-0.53
Cc1cc2c(cc3n2CC(C)(C(=O)NC2CCCCC2)N(CCCOC(C)C)C3=O)o1 (configuration not stated)	i	0.51
Cc1ccc(S(=O)(=O)NC(C)c2nc(-c3ccc(S(=O)(=O)N4CCCCC4)cc3)no2)cc1 (configuration not stated)	i	-0.29
Cc1nn(-c2ccc(-c3ccccc3)nn2)c(C)c1S(=O)(=O)N1CCCN(C)CC1	i	-0.59
Cn1c(CN(c2ccc(F)cc2)S(C)(=O)=O)nnc1SCC(=O)c1cn(C)c2ccccc12	i	0.17
Cn1c(=O)n(CCN2CCCCC2)c(=O)c2c1nc1n2CCCN1c1ccc(Cl)cc1	i	-0.67
CCOC(=O)c1cn(Cc2cccc(OC)c2)c2nc(C)ccc2c1=O	i	-0.67
O=C(Nc1cccc2c1CCCC2)c1cnn(-c2ccc(Cl)cc2)c1	i	1.2
O=C(NCc1cccc(Cl)c1)c1nnc2ccc(-c3ccccc3)nn12	i	1.8
CCOc1ccccc1OCc1nn2c(COc3ccc(F)cc3)nnc2s1	i	-1.2
COc1ccccc1-c1noc(Cc2nc(-c3ccc(C)c(C)c3)cs2)n1	i	1.4
Cc1ccc(-c2n[nH]c(CCNS(=O)(=O)c3cccc(Cl)c3C)n2)cc1	i	-1.4
O=C(Nc1ccc(Cl)cc1)c1nnc(C2CCCN(C(=O)c3cccc(F)c3)C2)s1 (configuration not stated)	i	-0.05
Next part:
SMILES	Anaer choline gr	Anaer choline gr early
CCOC(=O)c1c(C)[nH]c(C)c1S(=O)(=O)N1CCC(C(=O)NCCc2sccc2C)CC1	i	-1.3
COc1ccc(-n2nnnc2C2CCN(S(=O)(=O)c3cc(Cl)ccc3C)CC2)cc1	i	1.9
CCn1c(SCc2nc(-c3ccccc3C)oc2C)nc(=O)c2c(C(=O)OC)cc(C)nc21	i	0.11
CN(Cc1ccccc1)C(=O)c1cc(NS(=O)(=O)c2ccc(Cl)cc2)ccc1N1CCNCC1	i	-0.62
C=Cc1ccc(COC(=O)c2nnn(-c3ccc(F)cc3)c2C)cc1	i	-0.7
CN1CCN(CCCNC(=O)c2cc(=O)n(C)c3c2c(=O)n(C)c(=O)n3C)CC1	i	-1.8
Cc1cc2c(cc1NC(=O)CN1CCOCC1)n(C)c(=O)c(=O)n2C	i	-0.3
OCCNc1nc(Nc2cccc(Cl)c2)c2cnn(-c3ccccc3)c2n1	i	2.3
CCCCc1cnc2c(c1SCC)c(=O)n(C)c(=O)n2C	i	0.16
CCOc1ccccc1CNC(=O)C1CCN(C(=O)c2sccc2-n2cccc2)CC1	i	1.2
Cc1ccc2c(Sc3ccc(Cl)cc3)c(C(=O)NCCN(C)C)[nH]c2c1	i	-0.06
CCOC(=O)c1cccc(NC(=O)c2ccc(-n3cnc(NC(C)=O)c3)cc2)c1	i	-0.11

As a working copy, part of the list above.
SMILES	Anaer choline gr	Anaer choline gr early
CCOc1ccccc1CNC(=O)C1CCN(C(=O)c2sccc2-n2cccc2)CC1	i	1.2
Cc1ccc2c(Sc3ccc(Cl)cc3)c(C(=O)NCCN(C)C)[nH]c2c1	i	-0.06
CCOC(=O)c1cccc(NC(=O)c2ccc(-n3cnc(NC(C)=O)c3)cc2)c1	i	-0.11

Four structures already listed, arranged by SMILES length, low to high:
SMILES	Anaer choline gr	Anaer choline gr early
CCOC(=O)c1cccc(NC(=O)c2ccc(-n3cnc(NC(C)=O)c3)cc2)c1	i	-0.11
COc1ccc(-n2nnnc2C2CCN(S(=O)(=O)c3cc(Cl)ccc3C)CC2)cc1	i	1.9
CN1CCN(CCCNC(=O)c2cc(=O)n(C)c3c2c(=O)n(C)c(=O)n3C)CC1	i	-1.8
CCn1c(SCc2nc(-c3ccccc3C)oc2C)nc(=O)c2c(C(=O)OC)cc(C)nc21	i	0.11

These rows are one share of the data; the hit share may differ from the screen's.
